Compound activity deposited in PubChem by Broad Institute.
A1 apoptosis 2 – A1 inhibitors via caspase activation, primary screen, cell-based, luminescence, HTS, two replicates | 24,000 tested, under 10 active | MEF A1-2A-BIM cells, caspase-Glo luminescence, 3 h; percent of clofoctol response, DMSO zero | AID 2465, 2010 | caspase activation, % (test concentration not listed); in the data active = caspase activation above about 5.9%;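 note: wells of about 30 µL received 50 nL stock; the first replicate is given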
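Evaluation: Caspase-3/7 activity from luminescence increase | Assay system: A1-2A-BIM mouse embryonic fibroblasts | Quantity: 2500 MEF cells/well | Medium: RPMI-1640 plus 10% FBS | Detection: Caspase-Glo 3/7 luminescence, 1 h at room temperature | Dosing: 50 nL compound per well, pinned | Timing: Cells settled overnight, compound exposure 3 h at 37 °C, 5% CO2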
* hit, by the source's call. An excerpt; the hit share may differ from the screen's.

SMILES	A1 apoptosis 2
C[C@@H]1CN([C@@H](C)CO)C(=O)c2cc(N(C)C)ccc2O[C@H]1CN(C)S(=O)(=O)c1ccccc1	-0.8
C[C@@H]1CN([C@@H](C)CO)C(=O)CCCn2nncc2CO[C@@H]1CN(C)C(=O)c1ccccc1	0.9
Cc1cc(C(=O)Nc2cccc3c2O[C@H](CN(C)CC2CC2)[C@@H](C)CN([C@H](C)CO)C3=O)n(C)n1	-1.2
C[C@@H]1CCCCO[C@H](CN(C)Cc2ccccc2)[C@@H](C)CN([C@@H](C)CO)C(=O)c2cc(NC(=O)Nc3ccc(C(F)(F)F)cc3)ccc2O1	1.3
Cc1ccc(CN(C)C[C@H]2OCc3cn(nn3)CCCC(=O)N([C@H](C)CO)C[C@@H]2C)cc1	0.2
C[C@@H]1CCCCO[C@@H](CN(C)C)[C@H](C)CN([C@@H](C)CO)C(=O)c2cc(NC(=O)CCCN(C)C)ccc2O1	-0.2
C[C@@H]1CCCCO[C@@H](CN(C)C)[C@H](C)CN([C@@H](C)CO)C(=O)c2cc(NC(=O)c3ccccc3)ccc2O1	-1.2
C[C@@H]1CN([C@H](C)CO)C(=O)c2cc(NC(=O)NC3CCCCC3)ccc2O[C@@H]1CN(C)S(=O)(=O)c1cn(C)cn1	0.7
C[C@H](CO)N1C[C@H](C)[C@H](CN(C)S(=O)(=O)c2cccs2)OCCCC[C@H](C)Oc2ccc(NC(=O)CCCN(C)C)cc2C1=O	0.8
O=C(CCCCC(=O)N/N=C/c1cc(O)ccc1O)NO	0.3
C[C@H](CO)N1C[C@H](C)[C@H](CN(C)C(=O)Nc2cccc3ccccc23)Oc2ccc(NC(=O)Cc3ccccc3)cc2C1=O	0.3
Cc1noc(C)c1NC(=O)N(C)C[C@@H]1Oc2ccc(NS(=O)(=O)c3ccccc3)cc2CC(=O)N([C@H](C)CO)C[C@@H]1C	-0.6
C[C@@H]1CN([C@H](C)CO)C(=O)c2cc(NS(=O)(=O)c3ccccc3)ccc2O[C@@H]1CN(C)C(=O)NC1CCCCC1	0.4
O=C1c2ccccc2C(=O)N1[C@@H]1CCN(Cc2cccc(OCCO)c2)C1	-0.6
C[C@@H]1CCCCO[C@@H](CN(C)Cc2ccc(C(F)(F)F)cc2)[C@H](C)CN([C@@H](C)CO)C(=O)c2cc(NC(=O)CCCN(C)C)ccc2O1	-0.5
C[C@@H]1CN([C@@H](C)CO)C(=O)c2cc(NS(=O)(=O)c3ccc(Cl)cc3)ccc2O[C@@H]1CN(C)Cc1ccc(C(F)(F)F)cc1	-1.2
C[C@@H]1CN([C@@H](C)CO)C(=O)c2cc(NC(=O)Nc3ccc(C(F)(F)F)cc3)ccc2O[C@H]1CN(C)Cc1ccc(-c2ccccc2)cc1	-0.1
CC(C)NC(=O)Nc1ccc2c(c1)C(=O)N([C@@H](C)CO)C[C@@H](C)[C@H](CN(C)Cc1ccc(Cl)c(Cl)c1)OCCCC[C@@H](C)O2	0.9
CC(C)NC(=O)Nc1ccc2c(c1)C(=O)N([C@@H](C)CO)C[C@H](C)[C@@H](CN(C)CC1CCCCC1)O2	0.1
C[C@@H]1CN([C@H](C)CO)C(=O)c2cc(NC(=O)Nc3ccccc3)ccc2O[C@H]1CN(C)Cc1ccc(Cl)c(Cl)c1	0.8

Random excerpt: two entries already listed.
SMILES	A1 apoptosis 2
Cc1cc(C(=O)Nc2cccc3c2O[C@H](CN(C)CC2CC2)[C@@H](C)CN([C@H](C)CO)C3=O)n(C)n1	-1.2
C[C@H](CO)N1C[C@H](C)[C@H](CN(C)C(=O)Nc2cccc3ccccc23)Oc2ccc(NC(=O)Cc3ccccc3)cc2C1=O	0.3

Further entries
SMILES	A1 apoptosis 2
C[C@@H]1CN([C@H](C)CO)C(=O)c2cc(NC(=O)Nc3ccc(C(F)(F)F)cc3)ccc2O[C@@H]1CN(C)S(=O)(=O)c1cn(C)cn1	0.4
Cc1noc(C)c1NC(=O)N(C)C[C@H]1OCCCC[C@@H](C)Oc2ccc(NC(=O)c3ccncc3)cc2C(=O)N([C@H](C)CO)C[C@H]1C	-0.5
C[C@H]1CN([C@@H](C)CO)C(=O)c2cccc(NC(=O)c3nc4ccccc4s3)c2O[C@@H]1CN(C)C(=O)Nc1cccc2ccccc12	0.4
O=C(NO)c1cccc(C(=O)N/N=C/c2ccccc2Br)c1	-4.1
C[C@@H]1CN([C@H](C)CO)C(=O)c2cc(NC(=O)Nc3cccc4ccccc34)ccc2O[C@H]1CN(C)C(=O)Nc1cccc2ccccc12	-0.4
C[C@@H]1CCCCO[C@H](CN(C)C(=O)C2CCCCC2)[C@H](C)CN([C@H](C)CO)C(=O)c2cc(NS(=O)(=O)c3cccs3)ccc2O1	1.0
C[C@@H]1CCCCO[C@@H](CN(C)S(=O)(=O)c2ccc(F)cc2)[C@@H](C)CN([C@@H](C)CO)C(=O)c2cc(NC(=O)NC3CCCCC3)ccc2O1	1.1
COc1ccc(NC(=O)Nc2ccc3c(c2)C(=O)N([C@@H](C)CO)C[C@@H](C)[C@H](CN(C)C(=O)NC(C)C)OCCCC[C@@H](C)O3)cc1	-0.7
C[C@@H]1CN([C@H](C)CO)C(=O)CCCn2cc(nn2)CO[C@@H]1CN(C)S(=O)(=O)c1ccc2c(c1)OCCCO2	-0.4
C[C@H](CO)N1C[C@H](C)[C@@H](CN(C)Cc2ccccc2)Oc2c(NC(=O)C3CC3)cccc2C1=O	-1.2
Cc1noc(C)c1S(=O)(=O)N(C)C[C@H]1OCCCC[C@@H](C)Oc2ccc(NC(=O)Nc3cccc4ccccc34)cc2C(=O)N([C@H](C)CO)C[C@@H]1C	1.9
C[C@H](CO)N1C[C@H](C)[C@H](CN(C)C(=O)Nc2cccc(F)c2)OCc2cnnn2CCCC1=O	0.7
C[C@H]1CN([C@@H](C)CO)C(=O)Cc2cc(NS(C)(=O)=O)ccc2O[C@@H]1CN(C)S(=O)(=O)c1ccccc1	2.2
C[C@@H]1CN([C@H](C)CO)C(=O)CCCn2cc(nn2)CO[C@@H]1CN(C)C(=O)CCCN(C)C	-1.8
C[C@H]1CCCCO[C@H](CN(C)C(=O)Nc2ccc3c(c2)OCO3)[C@@H](C)CN([C@@H](C)CO)C(=O)c2cc(NS(=O)(=O)c3ccccc3)ccc2O1	0.7
C[C@@H]1CCCCO[C@H](CN(C)C(=O)Nc2ccc(F)cc2)[C@H](C)CN([C@@H](C)CO)C(=O)c2cc(NS(C)(=O)=O)ccc2O1	0.1
COc1ccc(COCC23N=C4SCc5ccccc5CN4[C@H](c4ccccc4O2)[C@H]3CO)cc1	1.0
C[C@H]1CN([C@@H](C)CO)C(=O)c2cc(NC(=O)Cn3cnnn3)ccc2O[C@@H]1CN(C)CC1CCCCC1	-0.3
C[C@@H]1CCCCO[C@@H](CN(C)Cc2ccc(C(=O)Nc3ccccc3N)cc2)[C@@H](C)CN([C@H](C)CO)C(=O)c2cc(NS(C)(=O)=O)ccc2O1	-0.3
C[C@@H]1CN([C@@H](C)CO)C(=O)c2cc(N(C)C)ccc2O[C@@H](C)CCCCO[C@H]1CN(C)C(=O)Nc1cccc2ccccc12	-1.7

Five of these compounds in a different format.
structure,A1 apoptosis 2
C[C@H]1CCCCO[C@H](CN(C)C(=O)Nc2ccc3c(c2)OCO3)[C@@H](C)CN([C@@H](C)CO)C(=O)c2cc(NS(=O)(=O)c3ccccc3)ccc2O1,0.7
C[C@H]1CN([C@@H](C)CO)C(=O)c2cccc(NC(=O)c3nc4ccccc4s3)c2O[C@@H]1CN(C)C(=O)Nc1cccc2ccccc12,0.4
C[C@@H]1CCCCO[C@@H](CN(C)Cc2ccc(C(=O)Nc3ccccc3N)cc2)[C@@H](C)CN([C@H](C)CO)C(=O)c2cc(NS(C)(=O)=O)ccc2O1,-0.3
COc1ccc(COCC23N=C4SCc5ccccc5CN4[C@H](c4ccccc4O2)[C@H]3CO)cc1,1.0
Cc1noc(C)c1S(=O)(=O)N(C)C[C@H]1OCCCC[C@@H](C)Oc2ccc(NC(=O)Nc3cccc4ccccc34)cc2C(=O)N([C@H](C)CO)C[C@@H]1C,1.9

Quoted from the listing.
A1 apoptosis 2, C[C@@H]1CCCCO[C@@H](CN(C)Cc2ccc(C(=O)Nc3ccccc3N)cc2)[C@@H](C)CN([C@H](C)CO)C(=O)c2cc(NS(C)(=O)=O)ccc2O1 : -0.3
A1 apoptosis 2, O=C(CCCCC(=O)N/N=C/c1cc(O)ccc1O)NO : 0.3

Following part
SMILES	A1 apoptosis 2
C[C@@H]1CN([C@H](C)CO)C(=O)c2cc(NC(=O)Nc3cccc4ccccc34)ccc2O[C@@H]1CN(C)C(=O)Nc1ccc(C(F)(F)F)cc1	0.5
C[C@H]1CCCCO[C@@H](CN(C)C)[C@@H](C)CN([C@@H](C)CO)C(=O)c2cc(NS(=O)(=O)c3ccc(Cl)cc3)ccc2O1	-0.7
C[C@@H]1CCCCO[C@@H](CN(C)C(=O)Nc2ccc3c(c2)OCO3)[C@@H](C)CN([C@@H](C)CO)C(=O)c2cc(NC(=O)CCCN(C)C)ccc2O1	1.7
Cc1noc(C)c1S(=O)(=O)N(C)C[C@@H]1Oc2ccc(NS(=O)(=O)c3cn(C)cn3)cc2CC(=O)N([C@@H](C)CO)C[C@@H]1C	0.7
C[C@H]1CCCCO[C@H](CN(C)C(=O)Nc2cccc3ccccc23)[C@@H](C)CN([C@@H](C)CO)C(=O)c2cc(NC(=O)Cc3ccccc3)ccc2O1	-0.8
C[C@H]1CCCCO[C@H](CN(C)C(=O)Cc2ccccc2)[C@@H](C)CN([C@@H](C)CO)C(=O)c2cc(NC(=O)CCCN(C)C)ccc2O1	-0.3
CC(C)(C)OC(=O)Nc1ccc(/C=N/NC(=O)c2ccccn2)cc1	0.6
CNC[C@H]1Oc2ccc(NC(=O)Nc3c(C)noc3C)cc2CC(=O)N([C@H](C)CO)C[C@H]1C	0.7
C[C@H](CO)N1C[C@H](C)[C@@H](CN(C)S(=O)(=O)c2ccccc2)OCCCC[C@H](C)Oc2ccc(NC(=O)Nc3ccc(F)cc3)cc2C1=O	1.0
C[C@@H]1CCCCO[C@H](CN(C)Cc2ccccc2)[C@H](C)CN([C@H](C)CO)C(=O)c2cc(NC(=O)c3ccncc3)ccc2O1	-1.0
C[C@H]1CN([C@@H](C)CO)C(=O)c2cc(NC(=O)Cc3cn(C)c4ccccc34)ccc2O[C@H]1CN(C)S(=O)(=O)c1ccc(F)cc1	1.6
COc1cccc(S(=O)(=O)N(C)C[C@@H]2Oc3ncc(C#CC(C)(C)O)cc3C(=O)N([C@H](C)CO)C[C@@H]2C)c1	0.9
C[C@H](CO)N1C[C@H](C)[C@H](CN(C)Cc2ccc(Cl)c(Cl)c2)Oc2c(NC(=O)C3CC3)cccc2C1=O	1.0
CC(=O)Nc1ccc(C(=O)Nc2ccccc2[N+](=O)[O-])cc1	-2.0
O=C(NO)c1cccc(C(=O)N/N=C/c2ccco2)c1	0.8
C[C@@H]1CN([C@@H](C)CO)C(=O)c2cc(NC(=O)Nc3cccc4ccccc34)ccc2O[C@@H](C)CCCCO[C@H]1CN(C)C	-0.2
Cc1noc(C)c1S(=O)(=O)N(C)C[C@H]1Oc2ccc(NC(=O)CCN3CCOCC3)cc2CC(=O)N([C@H](C)CO)C[C@H]1C	0.1
Cc1noc(C)c1NC(=O)Nc1ccc2c(c1)C(=O)N([C@H](C)CO)C[C@H](C)[C@H](CN(C)C(=O)Nc1cccc3ccccc13)O2	-1.2
C[C@@H]1CCCCO[C@H](CN(C)C(=O)C2CCCCC2)[C@@H](C)CN([C@@H](C)CO)C(=O)c2cc(NC(=O)Nc3ccc(C(F)(F)F)cc3)ccc2O1	-1.1
C[C@H]1CCCCO[C@H](CN(C)C(=O)c2ccncc2)[C@@H](C)CN([C@@H](C)CO)C(=O)c2cc(NC(=O)Cc3ccccc3)ccc2O1	-0.6
Cc1ccc(S(=O)(=O)N(C)C[C@@H]2OCCCC[C@H](C)Oc3ccc(NC(=O)c4ccccc4)cc3C(=O)N([C@H](C)CO)C[C@@H]2C)cc1	0.0
C=CCOC(=O)[C@H]1[C@@H]2C(=O)O[C@@H](c3ccccc3)[C@@H](c3ccccc3)N2[C@@H](c2ccc(OCCOC(=O)[C@@H]3C[C@@H]4C(=O)N[C@@H](CCCCNC(C)=O)C(=O)N4[C@@H]3c3ccc(O)cc3)cc2)[C@]12C(=O)Nc1ccc(I)cc12	0.0
COc1ccc(CN(C)C[C@@H]2OCCCC[C@H](C)Oc3ccc(N(C)C)cc3C(=O)N([C@H](C)CO)C[C@H]2C)cc1	-0.9
C[C@@H]1CCCCO[C@@H](CN(C)C(=O)Nc2ccc3c(c2)OCO3)[C@H](C)CN([C@@H](C)CO)C(=O)c2cc(NS(C)(=O)=O)ccc2O1	0.9
C[C@@H]1CCCCO[C@H](CN(C)C(=O)Nc2cccc3ccccc23)[C@H](C)CN([C@@H](C)CO)C(=O)c2cc(NC(=O)Nc3ccc(C(F)(F)F)cc3)ccc2O1	-0.6
C[C@H](CO)N1C[C@H](C)[C@H](CN(C)C(=O)Nc2ccc3c(c2)OCO3)Oc2ccc(NC(=O)C3CC3)cc2CC1=O	-0.3
C[C@@H]1CN([C@@H](C)CO)C(=O)c2cccc(NC(=O)c3ccncc3)c2O[C@H]1CN(C)C(=O)NC1CCCCC1	-0.3
COc1ccc(NC(=O)Nc2ccc3c(c2)C(=O)N([C@@H](C)CO)C[C@H](C)[C@@H](CN(C)S(=O)(=O)c2ccccc2)OCCCC[C@@H](C)O3)cc1	0.2
CC(C)NC(=O)Nc1ccc2c(c1)C(=O)N([C@H](C)CO)C[C@H](C)[C@H](CN(C)C)OCCCC[C@@H](C)O2	0.5
COc1ccc(S(=O)(=O)N(C)C[C@H]2OCCCC[C@H](C)Oc3ccc(NC(=O)Nc4ccccc4)cc3C(=O)N([C@H](C)CO)C[C@@H]2C)cc1	1.1
